VACV mCherry inh – vaccinia inhibition (mCherry reporter); 310,000 compounds, 0.63% hits; Vaccinia virus mCherry reporter infection, fluorescence; about a quarter of the inactives have no number; Potency, µM (doses to about 36.5 µM), for inactives: at the highest dose activity change, negative = inhibition, actives largely listed as inhibitors; active = well fitted inhibition curve with a large enough effect; inconclusive = small, poorly fitted or top-dose-only effect; inactive = no such curve, though single readings can be large or run the other way; tested in A549 cells; note: nearly all actives have a fitted effect of over 35% in size; inactives centre near -10
Vaccinia Venus – inhibitors of vaccinia virus (Venus reporter); AID 720580; Vaccinia virus Venus reporter expression, fluorescence; 330,000 compounds, 0.46% hits; Potency, µM (doses to about 36.5 µM), inactives show at the highest dose activity change, negative = inhibition, usual class: inhibitors; active means well fitted inhibition curve with a large enough effect; inconclusive means small, poorly fitted or top-dose-only effect; inactive means no such curve, though single readings can be large or run the other way; tested in A549 cells; note: nearly all actives have a fitted effect of over 30% in size; inactives centre near -10
The depositor's hits bear a star; i = inactive; ? = inconclusive; / = not tested or not shown; & = joins results of further samples; [ ] = another dose, or the depositor's remark. % is set by controls: 0 for no effect and ±100 for the full control effect; potency is the fitted concentration of half-maximal effect.

Values run as follows: Vaccinia Venus | VACV mCherry inh
> CCC[C@H]1COCCS(=O)(=O)N1Cc1ccc(Br)cc1
    -14% | i
> CN1C(C)(C)CCCC1(C)C
    -14%&-10% | i
> C[C@@H](c1ccccc1)N1C[C@H](COCc2ccccc2)Oc2cc(N3CC[C@@H](N(C)C)C3)ccc2S1(=O)=O
    -27% | -18%
> C=C(C)COc1ccc(-c2[nH]ncc2-c2ccc(OC)c(OC)c2)c(O)c1
    10µM* | /
> CC(=O)c1cccc(NC(=O)COC(=O)c2cccs2)c1
    -2% | -9%
> COC(=O)N/N=C/c1cccc([N+](=O)[O-])c1
    6% | -2%
> c1ccc(CNc2nc3ccccc3n2CCN2CCOCC2)nc1
    -8% | -15%
> COC(=O)[C@@H]1C[C@@]2(O)[C@H](O)[C@H](O)[C@H](O)C[C@H]2N1Cc1cc(OC)cc(OC)c1
    10% | -2%
> OCCC1CN(Cc2cnc(N3CCCC3)s2)CCN1C1CCCC1 (configuration not stated)
    3% | ?
> Cc1ccc(S(=O)(=O)CCC(=O)OCC(=O)NCc2ccccc2)cc1
    -1% | -7%
> Cc1ccccc1NC(=O)C1CC(=O)N(c2ccc3c4c(cccc24)CC3)C1 (configuration not stated)
    -24% | -29%
> CCCCn1c(N)c(N(CCOC)C(=O)CCS(=O)(=O)c2ccc(Cl)cc2)c(=O)[nH]c1=O
    -16% | i
> COc1c(C)cc(C(O)c2ncc(-c3ccccc3Cl)[nH]2)cc1C (configuration not stated)
    -3% | 28%
> Cc1nc2ccccn2c(=O)c1NC(=O)c1c(F)cccc1F
    -5% | -14%
> O=c1c2c([nH]n1-c1ccccc1)C[C@@H](C1CCCCC1)O[C@H]2c1ccc(F)cc1
    0% | 24%
> CCOC(=O)N1CCC(NC(=O)c2cnn(-c3ccc(C)cc3)c2C2CCN(C(=O)OC(C)(C)C)CC2)CC1
    -12% | -14%
> O=[N+]([O-])/C=C/c1c(Cl)cccc1Cl
    -17% | -6%
> COc1ccc(C2NC(=S)NC3=C2N2CCC3CC2)cc1 (configuration not stated)
    -6% | -10%
> O=C(CNC(=O)C1CCCCC1)Nc1ccc(F)c(Cl)c1
    -20% | -6%
> FC(F)(F)c1cc(-c2cccs2)nc2ncnn12
    -4% | -8%
> Cc1ccc(C)c(N2CC(C(=O)Nc3cc(C)on3)CC2=O)c1 (configuration not stated)
    -5% | 10%
> CSC(=Nc1cccc(C)c1)NC#N
    -12% | -11%
> CC/C(=N\N=C1\SC(C)C(=O)N1Cc1ccco1)c1ccccc1 (configuration not stated)
    -18% | -15%
> COc1ccc(OC)c(S(=O)(=O)N(C)CC(=O)N2CCN(c3ccccc3)CC2)c1
    -29% | -10%[1.46 µM]
> CCN(C)C1CN(Cc2cn(CCCOC)nn2)S(=O)(=O)C1 (configuration not stated)
    -9% | -1%
> Cc1cc(NC(=O)CSc2nnc(-c3ccccc3)n2C)no1
    -15% | -1%
> NC1=NC(=Nc2ccc(S(=O)(=O)N3CCOCC3)cc2)c2ccccc21
    -19% | -16%
> COc1ccc(C2(c3ccc(OC)cc3)NC(=O)N(CC(=O)Nc3ccccc3C)C2=O)cc1
    -22% | -11%
> CCOC(=O)c1c(C)oc2c(F)c(F)c(F)c(F)c2c1=O
    -29% | /
> Cc1ccc(C)c(OCC(=O)N/N=C/c2ccc(N3CCOCC3)cc2)c1
    -5% | i
> COc1cc(NC(=O)c2ccccc2)c(OC)cc1NC(=O)CN1C(=O)N(C)C2(CCCCC2)C1=O
    -15% | -8%
> C[C@H](CO)NC(=O)c1[nH]cnc1C(=O)Nc1cccc(Cl)c1
    ? | ?
> c1ccc(Sc2cnc3ccccc3n2)cc1
    -10% | -4%
> COCCN(C(=O)CSc1nnc(-c2cccs2)n1N)c1c(N)n(Cc2ccccc2)c(=O)[nH]c1=O
    0% | i
> Cc1ccc(NCc2ccccc2-c2nnc(-c3ccccc3Cl)o2)c(C)c1
    -12% | -8%
> NNC(=O)CSCc1nc(-c2ccccc2)cs1
    -8% | -10%
> O=C(Nc1ccc2nc[nH]c2c1)c1ccco1
    -3% | -13%
> COCCn1nnnc1CN1CCC(O)(c2cccc(C(F)(F)F)c2)CC1
    -10% | -17%
> O=C(Cn1cc(SCc2ccccc2F)c2ccccc21)N1CCCCCC1
    -15% | -11%
> CN1CCN(CCC(=O)Nc2ccc3c(c2)OCO3)CC1
    -6% | -2%
> Cc1ccc(N(CC(=O)NCc2ccccn2)S(=O)(=O)c2ccccc2)cc1Cl
    -18% | -3%
> CN(C)S(=O)(=O)c1ccc2c(c1)nnn2CCNC(=O)Nc1ccc(Br)cc1
    -1% | -6%
> O=C(CCN1C(=O)c2ccccc2C1=O)NCc1ccncc1
    -7% | -7%
> Cc1ccc(C(=O)Nc2c(C)n(C)n(-c3ccccc3)c2=O)cc1S(=O)(=O)N1CCOCC1
    6% | -8%
> COc1cc(O)c(C=NN2C(=O)CSC2=S)c(OC)c1
    49%[activator] | -4%
> Cc1cc([N+](=O)[O-])nn1Cc1noc(C(=O)NCCc2ccccn2)n1
    0% | 3%
> COC(=O)c1c(NC(=O)c2ccccc2OC)sc(C(=O)N2CCOCC2)c1C
    3% | 0%
> O=C(Cc1cccc(NC(=O)C2CCN(C(=O)C3CC3)CC2)c1)Nc1cccc(C(=O)N2CCOCC2)c1
    -8% | -4%
> Cc1ccc(NC(=O)c2oc3ccccc3c2NC(=O)C2CC2)cc1
    -12%[7.34 µM] | i[7.34 µM]
> C=C(C)C(=O)N1CC2(CC(c3cccc(NC(=O)COc4ccc(Cl)cc4)c3)=NO2)C[C@@H]1C(N)=O (some centres not stated)
    -15% | i
> CCCN1C(=O)c2cc(C(=O)Nc3ccc(OC)c(OC)c3)ccc2C1Nc1ccc(OC)c(OC)c1 (configuration not stated)
    -20% | -15%
> Cc1sc(NC(=O)Cn2c(=O)oc3ccccc32)nc1-c1ccc(Cl)cc1
    -13% | i
> Cc1cc(NS(=O)(=O)c2ccc(NC(=O)COc3ccccc3[N+](=O)[O-])cc2)no1
    -17% | -3%
> CCn1c(NCCCO)nc2c(c1=O)C(C)(CC)Cc1ccccc1-2 (configuration not stated)
    -23% | -29%
> C/C(=N/NC(=O)CNC(=O)/C=C/c1ccco1)c1ccc(Cl)cc1
    -12% | -8%
> CCOc1ccc(NC(=O)CCN2CCN(S(=O)(=O)c3ccc(F)cc3)CC2)cc1
    -4% | i
> CC(C)c1ccc(Oc2cccc(C(=O)/C(C#N)=C/N(C)C)c2)cc1
    -19% | -8%
> CC(C)CC(=O)Nc1sc2c(c1C(=O)O)CCCCC2
    -17% | -12%
> COc1ccc(C)cc1NC(=O)CNc1ccc(C(C)=O)cc1
    -23% | -27%
> CCCCn1c(N)c(NCc2ccccc2OC)c(=O)[nH]c1=O
    -7% | -5%

Other structures.
Values run as follows: Vaccinia Venus | VACV mCherry inh
> Cc1nnc(NC(=O)NC(C)N2C(=O)C3C4C=CC(C4)C3C2=O)s1 (configuration not stated)
    -4%&-10% | -17%
> COc1ccc(C(=O)c2ncc(C(F)(F)F)cc2Cl)cc1
    6% | 3%
> CC(=O)CCc1ccc(OCC(=O)Nc2cccc(S(=O)(=O)N(C)c3ccccc3)c2)cc1
    -16% | -15%
> O=C(Cn1c2ccccc2c2nc3n(c(=O)c21)CCS3)Nc1ccccc1C(F)(F)F
    -26% | -3%
> N#CCCn1nc(-c2ccccc2)cc1Nc1ccccc1NC(=O)C(F)(F)F
    -22% | -7%
> CC12C=CC(=O)C=C1CCC1C2C(O)CC2(C)C1CCC2(C)O (configuration not stated)
    -4% | i
> CC(C)C(NS(=O)(=O)c1cccc2nsnc12)C(=O)N1CCCCC1 (configuration not stated)
    -6%[7.34 µM] | -16%[7.34 µM]
> O=C1c2ccccc2C(c2nnnn2Cc2ccccc2)N1CCCN1CCOCC1 (configuration not stated)
    -1% | 2%
> CCC1Nc2ncnc(N3CCN(c4ccccn4)CC3)c2N(Cc2ccc(Cl)cc2)C1=O (configuration not stated)
    ? | -23%
> COc1ccc(N2CCN(C(CNC(=O)C(=O)NCCc3c[nH]c4ccccc34)c3ccco3)CC2)cc1 (configuration not stated)
    -10% | -17%
> CS(=O)(=O)N1CCC(C(=O)Nc2ccc3c(c2)OCO3)CC1
    -4% | -10%
> COc1ccc(NC(=O)CC2(Cc3ccccc3)CCOC(C)(C)C2)cc1 (configuration not stated)
    -15% | -18%
> CCOC(=O)C1=C(C)NC(=O)NC1/C=C\c1ccccc1 (configuration not stated)
    2% | -6%
> Cc1cnc(C(=O)OC(C)C(=O)Nc2ccc(Cl)cn2)cn1 (configuration not stated)
    1% | -7%
> Cc1cccc(NC(=O)CN(CC2CCCO2)C(=O)c2ccc(S(C)(=O)=O)cc2)c1C (configuration not stated)
    -7% | i
> CCn1cc([N+](=O)[O-])c(C(=O)N2N=C(c3ccc(O)c(OC)c3)CC2c2ccccc2O)n1 (configuration not stated)
    -26% | -21%
> CC(C)(C)c1ccc(N2C(=O)CC(c3ccccc3)C2=O)cc1 (configuration not stated)
    -24% | -1%
> O=C(NC1CC2CCCC(C1)N2Cc1cccs1)N1CCOCC1 (configuration not stated)
    -1% | -12%
> N#C/C(C(=O)N1CCOCC1)=c1/s/c(=C\c2ccccn2)c(=O)n1-c1ccccc1
    5% | 4%
> CC1(c2nnc(-c3ccncc3)o2)CC(c2ccc(F)cc2)=NO1 (configuration not stated)
    -17% | i

In the list so far, these have two or more sulfur atoms:
Values run as follows: Vaccinia Venus | VACV mCherry inh
> COCCN(C(=O)CSc1nnc(-c2cccs2)n1N)c1c(N)n(Cc2ccccc2)c(=O)[nH]c1=O
    0% | i
> NNC(=O)CSCc1nc(-c2ccccc2)cs1
    -8% | -10%
> COc1cc(O)c(C=NN2C(=O)CSC2=S)c(OC)c1
    49%[activator] | -4%
> CC(C)C(NS(=O)(=O)c1cccc2nsnc12)C(=O)N1CCCCC1 (configuration not stated)
    -6%[7.34 µM] | -16%[7.34 µM]

3 compounds from above, ordered by heavy-atom count, smallest number first:
Values run as follows: Vaccinia Venus | VACV mCherry inh
> COc1cc(O)c(C=NN2C(=O)CSC2=S)c(OC)c1
    49%[activator] | -4%
> Cc1nnc(NC(=O)NC(C)N2C(=O)C3C4C=CC(C4)C3C2=O)s1 (configuration not stated)
    -4%&-10% | -17%
> OCCC1CN(Cc2cnc(N3CCCC3)s2)CCN1C1CCCC1 (configuration not stated)
    3% | ?

Further structures
Values run as follows: Vaccinia Venus | VACV mCherry inh
> CC(=O)c1cccc(NC(=O)c2ccc3c(c2)CCN3S(=O)(=O)c2ccccc2)c1
    -20% | -24%
> CC(C)c1ccc(Nc2sc(C(=O)c3ccccc3)c(N)c2S(=O)(=O)c2ccccc2)cc1
    -3% | -13%
> CCC(=Nc1ccc2c(c1)CCC2)c1c(O)n(C)c(=O)n(C)c1=O
    -2% | /
> C/C(=N\NC(=O)c1ccccn1)C12CC3CC(CC(C3)C1)C2
    -21% | ?
> CCc1nc2ccccc2c(C(=O)NCc2ccc(OC)cc2)c1C
    -9% | -8%
> CN1CCc2nc(SCc3ccc(Cl)cc3)c(C#N)c(-c3cccs3)c2C1
    -8% | -18%
> CCOc1cccc(C2c3c(oc4ccc(F)cc4c3=O)C(=O)N2CCc2ccc(OC)cc2)c1 (configuration not stated)
    -5% | -5%
> O=C(Nc1cccc2cccnc12)c1cccc(N2C(=O)CCC2=O)c1
    -7% | i
> Cc1nc2ccccc2c(=O)n1NS(C)(=O)=O
    -14% | /
> COc1ccc(-c2nn(Cc3ccccc3)cc2C(=O)N2CCN(c3ccccn3)CC2)cc1OC
    -2% | -14%
> O=C(NOCc1ccccc1)c1coc(-c2ccccc2)n1
    -10% | -9%
> O=C(O)CSc1ccc(NC(=O)Nc2ccccc2F)cc1
    -19% | -1%
> COCc1nnc(NC(=O)C2CC(=O)N(C3CCCC3)C2)s1 (configuration not stated)
    16% | i
> c1nc(COc2nsnc2N2CCOCC2)cs1
    -15% | i
> COC(=O)c1ccc([C@H]2Nc3ccc(S(=O)(=O)Nc4ccc(C)cc4)cc3[C@H]3C=CC[C@H]32)cc1
    -6% | -6%
> CC(=O)C1=C(O)CC(C)(C)CC1=NCCc1nc2ccccc2[nH]1
    -14% | i
> C=CCN1CC[C@]23c4c5ccc(O)c4O[C@H]2C(=O)CC[C@@]3(O)[C@H]1C5
    -11%&-7% | -11%&-2%
> CCc1sc(Nc2ccc(Cl)cc2)nc1-c1cc2cccc(OC)c2oc1=O
    -19% | -15%
> CCOc1ccc(C(C)=O)cc1COC(=O)CCc1cc(OC)c(OC)c(OC)c1
    6% | -11%
> C#Cc1ccc([C@@H]2C=C(C(=O)O)O[C@H](OCc3ccc(CO)cc3)C2)cc1
    -11% | i
> CCOC(=O)Cc1c(C)nc(-c2ccccc2)[nH]c1=O
    0% | -5%
> Cc1cc(C(F)(F)F)nn1CCCNC(=O)c1cnccn1
    -6% | -10%
> O=C(C[n+]1cccc(NC(=O)c2ccccc2)c1)c1cccc([N+](=O)[O-])c1
    -12% | -17%
> CCOc1cccc(CN2CCCC(C(=O)c3cc(Cl)ccc3OC)C2)c1O (configuration not stated)
    -17% | -27%
> O=C(CN1C(=O)NC2(CCCCC2)C1=O)NCCC1=CCCCC1
    -13% | i
> Cc1ccc(S(=O)(=O)N(Cc2ccc([N+](=O)[O-])cc2)C(=O)N2CCN(C)CC2)cc1
    -3% | -15%
> CC(=O)Nc1ccc(OCC(=O)c2ccc(C)cc2C)cc1
    -11% | /
